D2 agonist: human D2 receptor agonism in beta-arrestin assay. 360,000 compounds, 0.084% hits. activation, % (concentration not given with the values). DiscoveRx PathHunter D2 beta-arrestin, luminescence, 90 min; 100% = 57 uM dopamine signal. P14416. AID 624465; in the data active = activation above about 40%; inconclusive = about 15% to 40%; inactive = below about 15%; also: the text of the record calls up to 30% inactive
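DiscoveRx PathHunter D2 beta-arrestin cells (2,100/well) attached overnight, then compound-stimulated 90 min at 37 C in HBSS/10 mM HEPES/0.1% Tween-20 buffer; beta-galactosidase complementation read by luminescence after 1 h at ambient temperature. Dopamine 57 uM final (EC100) as control.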
TRPML1 ag: human mucolipin-1 channel agonism; TRPML1-expressing cells, Ca2+ dye fluorescence, FDSS; host cell line not named in the record; reference of the full effect not given here; activation, % (test concentration not listed); 410,000 compounds, 0.12% hits; in the data active = activation above about 50%; inconclusive = about 30% to 50%; inactive = below about 30%; also: 0% is about no effect; the text of the record puts the active cut at 80%
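Agonist activity was taken from a 110 s kinetic Ca2+ dye read on the FDSS after pinning compounds onto TRPML1-DL cells. The cells were seeded at 1,500/well with Tet inducer, incubated about 16 h, then dye-loaded at room temperature.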
TRPML1 inh: blocks the human TRPML1 channel | Q9GZU1 | TRPML1-inducible cells, Ca2+ dye fluorescence, FDSS; hits give low values; inhibition of EC80 agonist-evoked calcium signal | activity change, negative = inhibition, % (test concentration not listed) | 390,000 compounds, 0.02% hits | AID 624415; in the data active means activity change below about -50%; inconclusive means about -30% to -50%; inactive means above about -30%;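 also: stimulus is agonist 54-4 at its EC80 concentration; % is scaled to controls: 0 for no effect and ±100 for the full control effect; compound concentration not given in the record; the text of the record puts the active cut at -80%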
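Calcium fluorescence in TRPML1-DL cells induced overnight with Tet: a 110 s read after compound pin addition, then a 110 s antagonist read after challenge with 54-4 at 4 uM final (EC80).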
D2 potentiator: potentiates the human D2 dopamine receptor allosterically; DiscoveRx D2 beta-arrestin cells, luminescence, 90 min; 100% = 57 uM dopamine signal; potentiation, % (test concentration not listed); 360,000 compounds, 0.23% hits; active = potentiation of 50% or more; inconclusive = 30% to 50%; inactive = 30% or less;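 also: compound concentration not given in the record; tested on top of an EC20 dose of dopamine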
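PathHunter D2 cells, attached overnight at 37 deg C, received compound in DMSO plus dopamine at EC20 (50 nM final) for 90 min at 37 deg C. Beta-arrestin recruitment was read as luminescence after 1 h with detection reagent at ambient temperature.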
Six1-Eya2 blk: blocks human Six1 binding to Eya2 | AlphaScreen GST-Six1/His-Eya2 binding, biochemical; hits give low values; control for the full effect not named in the record | activity change, % (test concentration not listed) | 360,000 compounds, 0.56% hits; in the data active = activity change below about -65%; inconclusive = about -30% to -65%; inactive = above about -30%; also: % is scaled to controls: 0 for no effect and ±100 for the full control effect
Target sequence (O00167 whole entry, looked up): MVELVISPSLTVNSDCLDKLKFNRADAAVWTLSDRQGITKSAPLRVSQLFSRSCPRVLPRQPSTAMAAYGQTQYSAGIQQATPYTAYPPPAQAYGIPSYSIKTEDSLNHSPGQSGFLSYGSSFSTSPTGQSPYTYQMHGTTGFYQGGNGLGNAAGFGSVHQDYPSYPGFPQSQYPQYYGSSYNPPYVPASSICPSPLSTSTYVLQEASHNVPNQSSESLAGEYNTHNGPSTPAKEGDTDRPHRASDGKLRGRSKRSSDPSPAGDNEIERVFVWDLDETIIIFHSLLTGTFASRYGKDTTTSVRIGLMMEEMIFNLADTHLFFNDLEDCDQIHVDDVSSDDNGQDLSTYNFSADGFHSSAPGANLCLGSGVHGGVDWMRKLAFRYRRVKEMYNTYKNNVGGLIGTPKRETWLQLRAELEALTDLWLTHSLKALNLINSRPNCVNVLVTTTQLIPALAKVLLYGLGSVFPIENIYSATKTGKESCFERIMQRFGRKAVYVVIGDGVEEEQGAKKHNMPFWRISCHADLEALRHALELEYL
Target sequence (Q15475 whole entry, looked up): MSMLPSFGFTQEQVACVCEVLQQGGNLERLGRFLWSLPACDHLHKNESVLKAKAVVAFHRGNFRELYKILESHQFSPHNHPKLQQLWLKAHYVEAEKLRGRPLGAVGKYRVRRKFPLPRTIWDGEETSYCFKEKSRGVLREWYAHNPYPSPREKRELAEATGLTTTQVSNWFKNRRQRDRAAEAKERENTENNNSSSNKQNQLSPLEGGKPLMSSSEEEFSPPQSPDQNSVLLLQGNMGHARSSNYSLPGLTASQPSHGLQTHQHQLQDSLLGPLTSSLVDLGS
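Compounds are tested against tagged Six1 and Eya2 proteins bridged by glutathione donor and nickel acceptor beads; after a one-hour incubation at 37 °C without light, AlphaScreen emission is recorded.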
PINK1 expr mod: modulators of PINK1 expression; PINK1 immunofluorescence, high-content cytometry, 24 h; Potency, µM (titrated, usually from 76.6 µM), without a hit: at the highest dose activation (PINK1 increase), usual class: activators; 410,000 compounds, 0.2% hits; AID 624263; active = well fitted activation curve with a large enough effect; inconclusive = small, poorly fitted or top-dose-only effect; inactive = flat fitted curve, though single readings scatter; cell line not stated here;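 also: potency is read from the fitted curve at half-maximal effect; % of control where 0% means no effect; nearly all actives have a fitted effect of over 65% in size; a mitochondrial uncoupler was the plate control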
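PINK1 protein level read as immunofluorescence by microplate cytometer in a fixed, stained stable cell line after 24 h exposure to five compound concentrations, with CCCP as control.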
The depositor's hits bear a star; [ ] = remark or other dose.

What do the screens show for `O=C(Cn1ccc2cc(S(=O)(=O)N3CCCC3)ccc21)NCc1ccc(Cl)cc1`?
TRPML1 ag: 1.3; TRPML1 inh: -18.7; PINK1 expr mod: 3.4%

What do the screens show for `CC(C)c1ccc(/C=C/C(=O)Nc2ccc(CN3CCOCC3)cc2)cc1`?
D2 agonist: 8.2; TRPML1 ag: 0.4; TRPML1 inh: 12.8; D2 potentiator: -0.1; Six1-Eya2 blk: -6.4; PINK1 expr mod: 2.7%

How did CCn1c(SCC(=O)c2ccc(Cl)cc2)nnc1-c1ccoc1C do in these assays?
D2 agonist: -2.8; TRPML1 ag: -0.3; TRPML1 inh: 1.8; D2 potentiator: -17.9; Six1-Eya2 blk: -0.6; PINK1 expr mod: 0.2%

How did Cc1ccc(C)c(C2=NNC(=NCc3ccccc3)SC2)c1 do in these assays?
D2 agonist: 3.9; TRPML1 ag: 0.5; TRPML1 inh: -5.8; D2 potentiator: -9.6; Six1-Eya2 blk: -20.9; PINK1 expr mod: 0.7%

Results for NNC(=O)C1=NOC2COC3(CCN(c4ncccn4)CC3)OCC12 (stereo unspecified) ?
D2 agonist: -1.4; TRPML1 ag: 0.4; TRPML1 inh: -21.1; D2 potentiator: -5.3; Six1-Eya2 blk: 3.8; PINK1 expr mod: -3.4%

What do the screens show for `CC(C)c1ccc(CNCCSc2nnnn2C)cc1`?
TRPML1 ag: -0.9; TRPML1 inh: 1.4; PINK1 expr mod: 0.1%

Results for C[C@@H]1COc2cccc(N3CCN(Cc4ccccc4F)CC3)c2S(=O)(=O)N1 ?
TRPML1 ag: 1.3; Six1-Eya2 blk: 13.7; PINK1 expr mod: -0.9%

What do the screens show for `CC1CCCN(C(=O)CSc2nnc(-c3ccco3)n2C)C1` (stereo unspecified)?
D2 agonist: -3.9; TRPML1 ag: 0.2; TRPML1 inh: 56.5; D2 potentiator: -5.2; Six1-Eya2 blk: 9.7; PINK1 expr mod: 0.1%

How did Clc1cccc(CSc2ccc(-c3ccco3)nn2)c1 do in these assays?
D2 agonist: -2.3; TRPML1 ag: 1.4; TRPML1 inh: -1.2; D2 potentiator: -2.2; Six1-Eya2 blk: 1.2; PINK1 expr mod: 0.1%

Results for COc1cccc(C(=O)O/N=C(\N)c2ccc([N+](=O)[O-])cc2)c1 ?
D2 agonist: inconclusive; TRPML1 ag: -0.7; TRPML1 inh: -0.6; D2 potentiator: 136.5*; Six1-Eya2 blk: -2.9; PINK1 expr mod: 0.2%

Results for Cc1cc(C)c(NC(=O)CSc2nc(=O)n(CCN3CCOCC3)c3c2CCC3)c(C)c1 ?
D2 agonist: 9.4; TRPML1 ag: -0.2; TRPML1 inh: -7.8; D2 potentiator: -6.5; Six1-Eya2 blk: 0.0; PINK1 expr mod: 3.7%

What do the screens show for `Cc1cc2cc3c(cc2nc1SCC(=O)Nc1c(C)cccc1C)CCC3`?
D2 agonist: -2.3; TRPML1 ag: -0.2; TRPML1 inh: 20.1; D2 potentiator: -5.3; Six1-Eya2 blk: -2.1; PINK1 expr mod: 8.4%[38.3 µM]

What do the screens show for `OC[C@@H]1CN(Cc2ccc(Cl)cc2)C[C@H](n2cnc3c(NC4CCCC4)ncnc32)O1`?
D2 agonist: 9.2; TRPML1 ag: 1.7; D2 potentiator: -0.1; Six1-Eya2 blk: 0.5; PINK1 expr mod: 5.9%

How did CCN(C[C@H]1N[C@@](C)(C(=O)OC)[C@H]2C(=O)N(Cc3ccccc3)C(=O)[C@@H]12)C(=O)Nc1ccc(F)cc1 do in these assays?
D2 agonist: 0.0; TRPML1 ag: -0.2; TRPML1 inh: 22.3; Six1-Eya2 blk: 3.1; PINK1 expr mod: 0.2%

Results for COc1cc(NC(=O)c2cc(-c3cccs3)on2)cc(OC)c1OC ?
D2 agonist: 0.4; TRPML1 ag: -0.5; TRPML1 inh: 2.1; D2 potentiator: -32.9; Six1-Eya2 blk: -4.9; PINK1 expr mod: 5.6%

Results for Cc1onc(C(=O)N2CCN(c3ccccc3F)CC2)c1-c1ccccc1Cl ?
D2 agonist: -0.3; TRPML1 ag: 1.3; TRPML1 inh: -12.4; D2 potentiator: -33.5; Six1-Eya2 blk: 2.5; PINK1 expr mod: 6.3%

What do the screens show for `Cc1ccccc1NC(=O)Cn1nnc(-c2ccc(CN3CCC(C)CC3)cc2)n1`?
D2 agonist: 0.4; TRPML1 ag: 0.1; TRPML1 inh: -11.2; D2 potentiator: -15.4; Six1-Eya2 blk: -1.3; PINK1 expr mod: 0.9%

Results for CC(NC(=O)CN1CCN(c2ncccn2)CC1)c1ccc(F)cc1 (stereo unspecified) ?
D2 agonist: 7.6; TRPML1 ag: 1.7; TRPML1 inh: 16.0; D2 potentiator: -31.8; Six1-Eya2 blk: -0.1; PINK1 expr mod: -0.9%

What do the screens show for `CCOc1ccc(C(=O)Nc2ccc(S(=O)(=O)N(Cc3ccccc3)c3ccccc3)cc2)cc1`?
TRPML1 ag: 0.1; TRPML1 inh: 8.0; PINK1 expr mod: 1.5%

What do the screens show for `Cc1nc(SCc2ccc(Cl)c(Cl)c2)ncc1C(=O)O`?
D2 agonist: -5.2; TRPML1 ag: 3.0; TRPML1 inh: 17.8; D2 potentiator: 3.2; Six1-Eya2 blk: -9.3; PINK1 expr mod: 2.3%

Results for C=CC(=O)NC(NC(=O)C=C)c1ccc(Br)cc1 ?
D2 agonist: -0.2; TRPML1 ag: -0.9; TRPML1 inh: -8.8; D2 potentiator: 8.3; Six1-Eya2 blk: -1.7; PINK1 expr mod: 3.7%

What do the screens show for `CCCN(C1CCS(=O)(=O)C1)S(=O)(=O)c1ccc2ccccc2c1` (stereo unspecified)?
D2 agonist: 5.3; TRPML1 ag: 0.8; TRPML1 inh: 0.3; D2 potentiator: -1.2; Six1-Eya2 blk: 4.7; PINK1 expr mod: 0.5%

How did O=C(OC1CCOC1=O)c1ccc2ncsc2c1 (stereo unspecified) do in these assays?
D2 agonist: -3.0; TRPML1 ag: 0.5; TRPML1 inh: 8.6; D2 potentiator: -1.0; Six1-Eya2 blk: 1.6; PINK1 expr mod: 1.2%

Results for COc1ccccc1/C=C/C1=NC(=C\C=C/c2ccccc2)/C(=O)O1 ?
D2 agonist: -3.0; TRPML1 ag: 3.6; TRPML1 inh: 15.1; D2 potentiator: -3.8; Six1-Eya2 blk: 6.8; PINK1 expr mod: 0.7%

What do the screens show for `COc1cc(OCc2ccccc2)c(OC)c(OCc2ccccc2)c1`?
D2 agonist: 11.7; TRPML1 ag: -0.8; TRPML1 inh: 68.2; D2 potentiator: 0.4; Six1-Eya2 blk: 16.9; PINK1 expr mod: 4.2%

How did CC1(C)CC(=O)c2sc(NC(=O)C3COc4ccccc4O3)nc2C1 (stereo unspecified) do in these assays?
D2 agonist: -1.0; TRPML1 ag: 0.2; TRPML1 inh: -9.2; D2 potentiator: -1.5; Six1-Eya2 blk: -1.5; PINK1 expr mod: 6.1%

What do the screens show for `CS(=O)(=O)O/N=C1\CCCCC1c1ccc([N+](=O)[O-])cc1[N+](=O)[O-]` (stereo unspecified)?
D2 agonist: 2.1; TRPML1 ag: 1.5; TRPML1 inh: -0.3; D2 potentiator: 12.7; Six1-Eya2 blk: 4.8; PINK1 expr mod: -0.1%

What do the screens show for `Cc1ccc(CN2CCNC(=O)C2CC(=O)NCc2cc(C)n(C)n2)cc1` (stereo unspecified)?
D2 agonist: -3.7; TRPML1 ag: -0.1; TRPML1 inh: 8.3; D2 potentiator: -4.8; Six1-Eya2 blk: -2.0; PINK1 expr mod: -3.0%

Results for COc1ccc(N(C)C(=O)c2sc(Cl)nc2C)cc1 ?
D2 agonist: -2.6; TRPML1 ag: 0.5; TRPML1 inh: 4.6; D2 potentiator: -3.1; Six1-Eya2 blk: -1.4; PINK1 expr mod: -0.7%

Results for COc1ccc(-c2cc3nc(-c4ccc(Br)cc4)cc(C(F)(F)F)n3n2)cc1 ?
TRPML1 ag: 0.3; TRPML1 inh: 13.3; PINK1 expr mod: -1.6%

Results for CCOC(=O)CC(=O)CSc1nc2c(sc(=S)n2-c2ccc(C)c(C)c2)c(=O)[nH]1 ?
D2 agonist: 3.5; TRPML1 ag: 2.4; TRPML1 inh: 9.3; D2 potentiator: -1.5; Six1-Eya2 blk: -12.1; PINK1 expr mod: 0.0%

How did CCOC(=O)N1CCC(=NNC(=O)c2ccc(O)cc2)CC1 do in these assays?
D2 agonist: -3.8; TRPML1 ag: -0.2; TRPML1 inh: -5.6; D2 potentiator: -5.8; Six1-Eya2 blk: -0.7; PINK1 expr mod: 1.0%

How did O=C(Nc1nnc(-c2cccs2)o1)c1ccc(S(=O)(=O)N2CCOCC2)cc1 do in these assays?
D2 agonist: -1.4; TRPML1 ag: 0.2; TRPML1 inh: -15.0; D2 potentiator: -4.0; Six1-Eya2 blk: -11.0; PINK1 expr mod: 3.2%

What do the screens show for `COc1ccc(C2OC(=O)CC2C(=O)NC2CCCC(C)C2C)cc1OC` (stereo unspecified)?
D2 agonist: 1.4; TRPML1 ag: -0.6; TRPML1 inh: -2.3; D2 potentiator: -7.0; Six1-Eya2 blk: 3.1; PINK1 expr mod: -1.4%

Results for CC(=O)Nc1ccc(C(=O)CSc2nc3ccc(C)cc3[nH]2)cc1 ?
D2 agonist: -3.4; TRPML1 ag: -0.2; TRPML1 inh: -14.7; D2 potentiator: -15.9; Six1-Eya2 blk: -5.1; PINK1 expr mod: 1.5%

How did COc1ccc(Nc2cc(C)nc3ccc(C)cc23)cc1 do in these assays?
D2 agonist: -3.5; TRPML1 ag: -0.7; TRPML1 inh: 8.9; D2 potentiator: -40.1; Six1-Eya2 blk: -6.2; PINK1 expr mod: 0.5%

Quoted at random: 2 compounds from above
Results for Cc1cc(C)c(NC(=O)CSc2nc(=O)n(CCN3CCOCC3)c3c2CCC3)c(C)c1 ?
D2 agonist: 9.4; TRPML1 ag: -0.2; TRPML1 inh: -7.8; D2 potentiator: -6.5; Six1-Eya2 blk: 0.0; PINK1 expr mod: 3.7%

What do the screens show for `CC(C)c1ccc(CNCCSc2nnnn2C)cc1`?
TRPML1 ag: -0.9; TRPML1 inh: 1.4; PINK1 expr mod: 0.1%

New compounds follow
Results for C[C@@H](c1ccccc1)N1C[C@H]2CCCN2c2cc(Br)ccc2S1(=O)=O ?
D2 agonist: 3.1; TRPML1 ag: -0.4; TRPML1 inh: 33.0; D2 potentiator: 26.5; Six1-Eya2 blk: -1.5; PINK1 expr mod: 7.5%

Results for Nc1ccn(CC(=O)NCCCc2ccccc2)c(=O)n1 ?
D2 agonist: -2.0; TRPML1 ag: -0.1; TRPML1 inh: -13.8; D2 potentiator: -11.4; Six1-Eya2 blk: 12.4; PINK1 expr mod: 0.0%

How did COc1ccc(CCNC(=O)c2noc3c2CCCC3)cc1OC do in these assays?
D2 agonist: -0.8; TRPML1 ag: 0.3; TRPML1 inh: -9.8; D2 potentiator: -13.4; Six1-Eya2 blk: -0.5; PINK1 expr mod: 3.1%[38.3 µM]

What do the screens show for `S=C1NC[C@H](Cc2ccccc2)N1CCc1cccc2ccccc12`?
D2 agonist: -1.8; TRPML1 ag: -0.8; TRPML1 inh: 7.8; D2 potentiator: -15.1; Six1-Eya2 blk: -9.6; PINK1 expr mod: 2.0%
